Bioassay records as filed in PubChem.
NPYLR7 agonist – agonists of mosquito NPYLR7 receptor, primary screen, cell-based, Aedes aegypti, calcium fluorescence, mosquito biting behavior; activation, % at 10 µM; AID 1259423, 2018; hit rate 0.15% among 270,000; HEK293T NPYLR7/Galpha15, GCaMP6s calcium fluorescence; in the data active = activation above about 40%;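 note: 0% = vehicle and 100% = reference agonist at the receptor; some compounds past the cut are filed as inactive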
NPYLR7 agonist max-min – second read-out of NPYLR7 agonist, no call of its own (marks repeat the call); activation, %; measured here: Max-Min RFU normalised activation; some inactives read as strong as hits;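 span of the calcium signal over five minutes; 0% = vehicle and 100% = native peptide agonist; compound fluorescence can raise it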
Active calls of the source: *; & = joins results of further samples.

molecule | NPYLR7 agonist | NPYLR7 agonist max-min
CCc1ccc(C(=O)Nc2ccc(OC)cc2C(=O)NC2CC2)o1 | -8 | -8
NC(=O)C1CCCN(C(=O)c2ccc3ccccc3c2)C1 (stereo not drawn) | 5 | -1
N#CCOc1coc(CN2CCN(c3cccc(Cl)c3)CC2)cc1=O | 0 | -2
COc1ccccc1CNC(=O)C1(C)CCN(C(C)C)C1 (stereo not drawn) | 2 | 2
CCOC(=O)c1[nH]c(C)c(C(=O)C(C)N(CCOC)S(=O)(=O)c2ccc3ccccc3c2)c1C (stereo not drawn) | -11 | -2
CCc1nc2n(n1)C(=O)C(C(c1ccc(C)cc1)N1CCN(C)CC1)S2 (stereo not drawn) | -4 | -8
CC(C)CNC(=O)CSc1nnnn1-c1ccc(OC(F)(F)F)cc1 | -8 | 8
COCCN(CC(=O)N(CCc1c[nH]c2ccccc12)Cc1ccc(OC)cc1)C(=O)C1CCCC1 | 1 | 10
Cc1cccc(NC(=O)CNc2ccc(-n3cccn3)c(F)c2)c1C | -10 | -10
CN1CC2(CCCN(C(=O)c3ccc(-c4ccn[nH]4)cc3)C2)OC1=O (stereo not drawn) | -1 | -2
O=C(NC1CC1)c1ccc(-c2cc(-c3ccc(Cl)cc3Cl)[nH]n2)cc1 | 4 | -1
O=C(Nc1cc(F)ccc1C(=O)N1CCCCCCC1)c1ccoc1 | 4 | 1
Cc1noc(C)c1S(=O)(=O)NC(C)C(=O)O (stereo not drawn) | -2 | -4
C=C(C)c1cccc(C(C)(C)NC(=O)Nc2ncccn2)c1 | -4 | -4
O=C(NCC1CCCO1)C1CCN(C2CCN(C(=O)/C=C/c3ccccc3)CC2)CC1 (stereo not drawn) | -3 | -4
Cc1sc2nc(CSCC(=O)C34CC5CC(CC(C5)C3)C4)[nH]c(=O)c2c1C | 7 | 9

An excerpt of these results, with values under each structure.
Under each structure – NPYLR7 agonist | NPYLR7 agonist max-min
- CC(C)CNC(=O)CSc1nnnn1-c1ccc(OC(F)(F)F)cc1
 : -8 | 8
- COCCN(CC(=O)N(CCc1c[nH]c2ccccc12)Cc1ccc(OC)cc1)C(=O)C1CCCC1
 : 1 | 10
- Cc1cccc(NC(=O)CNc2ccc(-n3cccn3)c(F)c2)c1C
 : -10 | -10
- CN1CC2(CCCN(C(=O)c3ccc(-c4ccn[nH]4)cc3)C2)OC1=O (stereo not drawn)
 : -1 | -2
- O=C(NC1CC1)c1ccc(-c2cc(-c3ccc(Cl)cc3Cl)[nH]n2)cc1
 : 4 | -1
- O=C(Nc1cc(F)ccc1C(=O)N1CCCCCCC1)c1ccoc1
 : 4 | 1
- Cc1noc(C)c1S(=O)(=O)NC(C)C(=O)O (stereo not drawn)
 : -2 | -4

Following part
molecule | NPYLR7 agonist | NPYLR7 agonist max-min
O=C(C(Cl)=CNc1ccc(SC(F)F)cc1)C(F)(F)F | -5 | 5
COc1ccc(C(=O)Oc2ccc(-c3nc4ccccn4c3NC3CCCCC3)cc2OC)cc1 | 2 | 3
Cc1cnc(N(C)CCCc2nccn2C)nc1N(C)C | 0 | 2
CC(C)(C)C(=O)N1CCCC1C(=O)Nc1ccccc1Oc1cccnc1 (stereo not drawn) | -2 | -7
N#Cc1ccc(Oc2cccc(C(=O)N3CCN(CCC(=O)NC4CC4)CC3)c2)cc1 | 6 | 5
CN(C)C(=O)Sc1ccc(NS(=O)(=O)c2cnn(C)c2)cc1 | -3 | -3
Cc1nn(CC(N)=O)c(C)c1[N+](=O)[O-] | 5 | 6
CCC(C)(C)c1ccc(Oc2ccc(NS(=O)(=O)C3CCN(C(C)=O)CC3)cc2)cc1 | 0 | -1
COc1cccc(-c2nn(-c3ccccc3)c(OC(C)=O)c2-c2ccc(NC(=O)Cc3ccccc3)cc2)c1 | 23 | 36
O=[N+]([O-])c1cc2c3c(c1)C1C=CCC1CN3CC1CC=CC21 (stereo not drawn) | 4 | 4
COC(=O)Cc1cc(=O)[nH]c(N=C(NC(=O)c2ccccc2)Nc2ccc(C)cc2)n1 | -5 | -12
CC(C)(O)C#Cc1ccc(C(=O)N2CCC(c3ccccc3Cl)C2)o1 (stereo not drawn) | -1 | -7
CSc1nn(Cc2ccc(C)cc2)c(N)c1S(=O)(=O)c1ccccc1 | 4 | -2
CN(C)CCn1c2c(c(SCC(=O)Nc3nccs3)nc1=O)CCCC2 | -2 | 3
Cn1c(=O)oc2ccc(NCc3cc(C#N)ccc3F)cc21 | 11 | 3
O=C(NCCC1=CCCCC1)c1cc2c(s1)-c1ccccc1OC2 | 2 | -1
CN(CCNC(=O)c1cc2c(s1)CS(=O)(=O)C2)C1CCCCC1 | 6 | 5
CCN(Cc1ccccc1)c1nc(-c2ccc(F)cc2)nc2ccccc12 | -2 | -5
O=C(c1ccccc1-c1nn[nH]n1)N1CCCC(Nc2ccc(F)cc2)C1 (stereo not drawn) | 0 | -2
CCCn1c(C)c(CC(=O)NC(C)Cn2cccn2)c2c1CC(C)(C)CC2=O (stereo not drawn) | 16 | 4
C/C=C/C(=O)N1CCc2c([nH]c3ccc(OC)cc23)C1c1ccc(C(F)(F)F)cc1 (stereo not drawn) | 7 | -6
Cc1ccc([N+](=O)[O-])cc1C(=O)NN=Cc1ccco1 | 1 | 8
NC(=O)c1nc(-c2cc(Br)ccc2O)nc2c1[nH]c(=O)n2-c1ccccc1F | 13 | 5
CS(=O)(=O)CCn1nc(-c2ccc(Cl)s2)oc1=S | 3 | -5
Cc1ccccc1-n1c(SCC(=O)N2CCN(C(=O)c3ccc(C(C)(C)C)cc3)C(C)C2)nnc1-c1ccco1 (stereo not drawn) | 5 | 1
CCOC(=O)c1c(NC(=O)c2ccccc2)sc(C(=O)Nc2ccccc2OC)c1C | -6 | -1
COCc1nc(NCc2cnc3c(C)cccn23)c2cnn(C)c2n1 | 7 | 6
Cc1ccc(CSc2nc(CC(=O)NCc3nnc(C)o3)cs2)cc1 | 0 | -1
C/C=C/C(=O)N1CCC(Cc2ccc(C(F)(F)F)cc2)CC1 | 4 | 7
Cc1cc(C(=O)N[C@@H]2C[C@H]3C(=O)NCC(=O)N3C2)c2ccc(C)c(C)c2n1 | 5 | 4
C=C(C)Cn1c(=O)c2c(nc3n2CCCN3c2ccc(OCC)cc2)n(C)c1=O | -5 | -7
Cc1cccc(-n2c(SCc3ccc(C(=O)NCc4ccncc4)cc3)nnc2-c2ccccc2Cl)c1 | 23 | 30
O=C(Cn1cnc([N+](=O)[O-])n1)N/N=C\c1cc(Br)c(O)c(Br)c1 | 0 | -3
Cc1ccc(C(=O)n2sc(=O)c3ccccc32)cc1 | -2 | -5
CCOc1ccccc1C(=O)Oc1coc(CSc2nccc(C)n2)cc1=O | -14 | -8
CC(=O)N[C@@H](Cc1cnc[nH]1)C(=O)N1C[C@@H]2C3CCC(CC3)[C@@H]2C1 | 3 | 2
O=c1[nH]cnc2sc3c(c12)CCSC3 | 1 | 5
S=c1nc(NC2CC2)c2ccccc2[nH]1 | 9 | 13
COc1ccc2c(C)c(C(=O)NCCn3c(C)cc(C)nc3=O)oc2c1 | 1 | 0
CCn1c(=CC=[N+](C)C)c2cccc3cccc1c32 | 4 | -4
CC(C)(O)C#Cc1ccc(CN2CCc3[nH]cnc3C2c2ccsc2)s1 (stereo not drawn) | 3 | 3
O=C1SC(=C2SC(=O)N(c3ccccc3)C2=S)C(=S)N1c1ccccc1 | 10 | 7
Cc1cc(C(=O)Cn2ncc(Cl)c(Cl)c2=O)c(C)n1CCc1cccs1 | -3 | -6
C=CCn1c(N)cc(=O)nc1SCC(=O)OC1CC(C)CCC1C(C)C (stereo not drawn) | -1 | -4
C=CCNC(=O)CC12CC3CC(CC(Br)(C3)C1)C2 | -3 | -8
Cc1ccc(C2(CN(C)Cc3cc(C(C)C)on3)CCNCC2)nc1 | 10 | 5
CCOC(=O)c1cnc(C)nc1N1Cc2ccccc2C1 | -8 | -11
COc1ccc(OC)c(NC2OC(=O)c3c2ccc(OC)c3OC)c1 (stereo not drawn) | -9 | -9
CC(C)N(C(C)C)C(C(=O)N1C[C@@H](C)O[C@@H](C)C1)c1ccccc1 (stereo partly drawn) | -3 | -3
Cc1nc(C)c(Cc2cccc(C(F)(F)F)c2)c(N2CCN(C(=O)C(C)(C)CCl)CC2)n1 | 1 | 8
CCc1nc(S(=O)(=O)CC2CCCCO2)n[nH]1 (stereo not drawn) | 2 | 869
Cc1cc(C)cc(C(=O)NCC(=O)Nc2ncn[nH]2)c1 | 6 | 5
Cc1cc(C)c(S(=O)(=O)Nc2ccc(Nc3cc(-n4ccnc4)ncn3)cc2)cc1C | -13 | -22
O=C1NC2(C(=O)O)CCC(=O)N2c2ccccc21 (stereo not drawn) | 12 | 6
Cc1cc(NC(=O)N(Cc2ccncc2)C2CC2)no1 | 4 | 4
CC(C)(C)c1ccc(CN(CCc2c[nH]c3ccccc23)C(=O)CN(Cc2ccc(Cl)cc2)C2CC2)cc1 | -1 | 4

(more compounds)
molecule | NPYLR7 agonist | NPYLR7 agonist max-min
CS(=O)(=O)c1ccc(C(NC(=O)CCCNC(=O)OCc2ccccc2)c2ccc3c(c2)CCO3)cc1 (stereo not drawn) | -4 | -11
Cc1cc(C)c(S(=O)(=O)N(CCN2CCOCC2)CC(=O)N(Cc2ccc3c(c2)OCO3)Cc2ccc(C)o2)c(C)c1 | 31 | 33
CCCCCCCCC(=O)Nc1ccc(N2CCCC2)c(C(=O)NC(C)C)c1 | 6 | 7
Nc1cc(Cl)ccc1Sc1ccc(F)cc1 | 15 | 30
CCCCc1ccc(S(=O)(=O)N2CCN(c3nccc(-c4ccc(OCC)cc4)n3)CC2)cc1 | 6 | 2
CN(CC(F)F)C1CCN(C(=O)c2cccc(S(=O)(=O)N3CCCC3)c2)CC1 | 4 | 1
COc1cccc(NC(=O)CCC2CCN(C(=O)CCN3CCOCC3)CC2)c1 | 1&13 | -1&4
CC1(C(=O)NS(=O)(=O)Cc2ccccc2C(F)(F)F)CCN1C(=O)CCc1ccccc1 (stereo not drawn) | 0 | -2
Cc1cccc(-n2[nH]c(=S)sc2=S)c1 | 1 | -1
COC(=O)c1ccc(CSc2nnc(Cn3ccc(=O)[nH]c3=O)o2)cc1 | -3 | 6
C=CCn1c(=O)c2c(nc3n2CCCN3c2ccc(OCC)cc2)n(C)c1=O | 3 | -3
CNC(=O)Cn1cc(-c2nnc(-c3ccccc3)o2)c2ccccc21 | -1 | 3
CN(Cc1cnc2nc(N)nc(N)c2n1)c1ccc(C(=O)N[C@@H](CCC(=O)O)C(=O)O)cc1 | -9&4&0 | -12&-4&-4
COC(=O)c1ccccc1NC(=O)CSc1nc(N)c2c3c(sc2n1)CCCC3 | -5 | -10
COc1ccc(C2=NN(C(=O)CN3CCOCC3)C(c3ccc(OC)cc3OC)C2)c(OC)c1 (stereo not drawn) | 10 | 13
CCCOCCCNC(=O)c1ccc(-c2n[nH]c3c2COc2ccccc2-3)cc1 | 30 | 16
CC1CN(CC(=O)NCc2ccc3c(c2)OCO3)Cc2cc(Cl)ccc2O1 (stereo not drawn) | -3 | -12
CN(C(=O)c1nc2ccccc2c(=O)[nH]1)C1Cc2ccccc2C1 | 15 | 12
COCC1(C(=O)NC2CC(=O)N(Cc3ccccc3C(F)(F)F)C2)CCC1 (stereo not drawn) | 5 | 5
Cc1[nH]cnc1CN(Cc1ccsc1)CC1CCCO1 (stereo not drawn) | 2 | 1
COc1cc(OC)c(OC)cc1C=C1N=C(c2ccc(C(F)(F)F)cc2)OC1=O | 13 | 17
CCOc1ccccc1CNCc1cnc(SC)nc1N(CC)CC | 17 | 17
O=C(NCC1CCCO1)c1cccnc1N1CCN(C(=O)c2ccc(-c3cccc(Cl)c3)s2)CC1 (stereo not drawn) | -3 | 1
Cc1ccc(-n2nc(C(=O)NCc3ccco3)c(=O)n(Cc3ccc(C(F)(F)F)cc3)c2=O)cc1 | 6 | 5
N#Cc1cc2nc(O)c(O)nc2cc1[N+](=O)[O-] | 0 | -23
CCOC(=O)c1nc2cc(C)c(C)cc2nc1N1CCN(S(=O)(=O)c2ccc(Cl)c([N+](=O)[O-])c2)CC1 | 10 | 4
O=S(=O)(c1ccc(Cl)cc1)N1CCN(C(=S)Nc2ccccc2F)CC1 | -1 | 0
O=S(=O)(NCCc1ccc(F)cc1)c1ccc(Cl)cc1 | -3 | -4
CCCc1[nH]n(-c2ccc(Cl)c(Cl)c2)c(=O)c1C1=C([n+]2cccc(C)c2)C(=O)N(c2cccc(C)c2)C1=O | 4 | 1
CNC(=O)Cn1cc(NC(=O)c2ccc(CN3CCCC(C)C3)cc2)cn1 (stereo not drawn) | -2 | -5
C=CCOc1ccc(C2C3=C(CCCC3=O)OC(=N)C2C#N)cc1 (stereo not drawn) | -8 | -11
CCCc1nc(CN2CCN(c3cccc(C)c3)CC2)cs1 | 6 | 4
CCC(C)N(Cc1ccncc1)C(=O)c1ccccc1OC(F)F (stereo not drawn) | 6 | 2
CCOC(=O)c1cc(-c2ccc(N3CCN(C(=O)c4ccc(OC)c(F)c4)CC3)cc2)n(-c2ccccn2)n1 | 17 | 11
CCOC(=O)C(Cc1ccc(Cl)cc1)NC(=O)c1c(C)oc(C)c1-c1ccoc1 (stereo not drawn) | -4 | -9
COc1ccc(Cl)cc1C1=N/C(=C/c2cccs2)C(=O)O1 | -5 | -12
COc1ccc2oc(=O)n(C3CCN(C(=O)c4ccnc(Cl)c4)CC3)c2c1 | 18 | 17

These rows are one share of the data. The share of hits here may be higher or lower than overall.
